T cruzi inh – T. cruzi replication inhibition; T. cruzi beta-gal in NIH3T3, luminescence, 90 h; inhibition, % (no concentration beside the values); hit rate 1.4% among 300,000; AID 1885;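 active means mean inhibition across valid replicates above about 55%, limit read from the data; inconclusive means mean below that limit but half or more replicates reach it; inactive means mean below it, under half of replicates reach it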;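 further: signal also drops with host cell toxicity which is not excluded here; 0% = plate median of DMSO wells and 100% = zero luminescence signal; higher percent means less beta-gal luminescence so fewer parasites; stock transfer was 50 nL into about 50 µL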
Beta apoptosis – beta cell apoptosis inhibition; INS-1E cytokine-induced death, ATP luminescence, 48 h; percent of positive-control rescue, neutral wells zero; protection from apoptosis, % (no concentration beside the values); hit rate 0.8% among 300,000; AID 435005;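 active means all replicates at 75% or more, or half of them and the mean; inconclusive means half reach 75% but not the mean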;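 further: 0% = cytokine-treated negative control wells and 100% = positive control rescue; higher means more ATP so stronger rescue from cytokine killing; wells of about 40 µL received 100 nL stock; the first replicate is given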
E coli growth – E. coli growth inhibition. hit rate 0.21% among 330,000. AID 1053175. Escherichia coli growth, OD600, 23 h; stronger effect = lower value. OD600 absorbance (no concentration beside the values);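 active means OD600 absorbance below the run mean of sample wells minus 3.6 SD, in any replicate, cut at about 0.56 in these data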;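 further: stock transfer was 300 nL into about 60 µL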
Bfl-1 A1 inh – inhibitors of the anti-apoptotic protein A1, read as caspase activation | hit rate 0.066% among 330,000 | caspase activation, % (concentration not given with the values) | AID 2462 | MEF A1-2A-BIM cells, Caspase-Glo 3/7 luminescence, 3 h; percent of clofoctol response, vehicle zero;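 active means over half of replicate activation scores above 10%, or exactly half above 10 with the replicate mean above 10; inconclusive means replicate mean below 10 yet half the replicates above 10; inactive means over half of replicates below 10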;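 further: wells of about 30 µL received 50 nL stock; many hits fall short of the cut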
FGF22 binding – binders of recombinant human FGF22 by thermal shift | SYPRO orange fluorescence; percent of sucrose octasulfate shift, DMSO zero | hit rate 1.5% among 340,000 | calls only at 9.99 µM;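 active means melting point raised past a set limit in the mean and every replicate; inconclusive means no clear call; three in four hits are not shown here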
Target sequence (Q9HCT0 whole entry, looked up): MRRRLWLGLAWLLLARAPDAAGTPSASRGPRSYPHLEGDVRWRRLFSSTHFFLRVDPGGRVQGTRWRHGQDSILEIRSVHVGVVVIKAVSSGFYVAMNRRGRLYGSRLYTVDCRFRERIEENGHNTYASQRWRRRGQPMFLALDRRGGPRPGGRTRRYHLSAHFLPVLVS
Ecoli rRNA inh – inhibitors of bacterial rRNA selective over humanized ribosomes; GFP signal change (wild-type ribosome), % (concentration not given with the values); hit rate 1.6% among 350,000; E. coli WT GFP vs humanized-ribosome RFP mutants, fluorescence, 24 h; stronger effect = lower value; DMSO median 0, no signal -100; AID 720706;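 active means significant combined selectivity score with lowered wild-type GFP, culture density cut under 30%, mutant RFP and density less affected; inactive means any of these conditions unmet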; further: one replicate is shown; some compounds called inactive have numbers as strong as hits
AF4-AF9 inh – MLL-AF4/AF9 protein interaction inhibition | AlphaScreen, biotin-AF4 peptide binding to FLAG-AF9 | inhibition, % at 10 µM | P42568 | hit rate 0.47% among 350,000;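 active means every replicate reaching a set inhibition limit, whatever the replicate mean, cut at about 25% in these data; inconclusive means mean inhibition reaches that limit but some replicates miss it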;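 further: 0% = plate neutral control median and 100% = total signal loss; the record names both 10 and 1 µM as test concentration; the first replicate is given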
Target sequence (P42568 whole entry, looked up): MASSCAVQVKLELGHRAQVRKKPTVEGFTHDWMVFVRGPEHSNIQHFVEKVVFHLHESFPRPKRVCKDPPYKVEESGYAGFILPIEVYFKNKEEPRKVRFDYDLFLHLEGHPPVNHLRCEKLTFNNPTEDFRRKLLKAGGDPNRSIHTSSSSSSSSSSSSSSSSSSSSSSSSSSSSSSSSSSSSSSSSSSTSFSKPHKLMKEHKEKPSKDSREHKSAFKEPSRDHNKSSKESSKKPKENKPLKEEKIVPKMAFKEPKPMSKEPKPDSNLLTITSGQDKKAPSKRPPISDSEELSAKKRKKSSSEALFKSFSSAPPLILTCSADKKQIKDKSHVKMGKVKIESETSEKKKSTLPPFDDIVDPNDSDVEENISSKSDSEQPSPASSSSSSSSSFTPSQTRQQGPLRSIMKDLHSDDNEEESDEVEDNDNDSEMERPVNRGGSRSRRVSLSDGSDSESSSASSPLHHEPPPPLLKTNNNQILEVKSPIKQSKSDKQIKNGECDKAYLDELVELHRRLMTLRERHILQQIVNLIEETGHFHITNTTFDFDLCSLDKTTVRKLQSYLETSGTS
UCH37 inh – blocks the human deubiquitinase UCH37; purified proteasome/UCH37, Ub-AMC cleavage fluorescence; inhibition, % (no concentration beside the values); hit rate 0.33% among 330,000;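 active means mean of two replicates above 20%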;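 further: 0% = compound-free wells with enzyme and 100% = wells lacking proteasome; stock transfer was 100 nL into about 20 µL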
Target sequence (Q9Y5K5 whole entry, looked up): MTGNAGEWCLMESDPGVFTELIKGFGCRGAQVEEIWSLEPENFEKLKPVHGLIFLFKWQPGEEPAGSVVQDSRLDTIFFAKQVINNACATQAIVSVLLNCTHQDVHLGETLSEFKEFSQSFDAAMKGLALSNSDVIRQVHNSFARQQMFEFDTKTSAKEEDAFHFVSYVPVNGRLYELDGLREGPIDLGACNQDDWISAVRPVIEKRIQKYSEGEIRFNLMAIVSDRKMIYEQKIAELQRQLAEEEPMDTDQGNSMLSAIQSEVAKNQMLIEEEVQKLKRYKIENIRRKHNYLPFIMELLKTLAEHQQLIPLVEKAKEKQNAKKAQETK
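Material: human UCH37 enzyme supplied as purified proteasome complex / Amount: 0.15 nM proteasome as dispensed / Buffer or medium: pH 7.4 Tris-HCl (50 mM) with ovalbumin, ATP-MgCl2, DTT / Times: preincubation 30 min, reaction 25 min, room temperature / Technique: AMC fluorescence from Ub-AMC cleavage, excitation 355 nm, emission 460 nm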
Ecoli rRNA inh OD600 – second read-out of Ecoli rRNA inh, no call of its own (marks repeat the call); OD600 change, %; measured here: OD600 growth;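 optical density of the mix in the first replicate; 0 = DMSO median and -100 = no signal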
Ecoli rRNA inh RFP – recorded beside Ecoli rRNA inh, whose call it bears; RFP signal change, %; measured here: RFP humanized mutant strains;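 first replicate; 0 = DMSO median and -100 = no signal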
* = called active by the depositor; i = inactive; ? = inconclusive; · = no result given. Some of the compounds tested; the hit share may differ from the screen's.

SMILES	T cruzi inh	Beta apoptosis	E coli growth	Bfl-1 A1 inh	FGF22 binding	Ecoli rRNA inh	Ecoli rRNA inh OD600	Ecoli rRNA inh RFP	AF4-AF9 inh	UCH37 inh
CN(C)CCN(Cc1cc2cc3c(cc2nc1Cl)OCO3)C(=O)c1ccco1	-0.4	-0.4	0.686	0.5	i	3.0	7.4	-0.9	1.3	0.2
CN(C)CCN(C(=O)c1ccco1)c1nc2cc3c(cc2s1)OCCO3	23.0	9.2	0.676	0.2	i	-7.1	5.1	-4.6	5.0	6.8
O=C1NC2(Nc3ccccc31)C(=O)Nc1ccccc12 (centres undefined)	10.3	1.6	0.752	-0.6	·	·	·	·	·	-8.7
COCCC(=O)N1CCC(Oc2ccc(C(=O)N3CCC[C@H]3CO)cc2)CC1	-12.3	-3.7	0.723	-0.1	i	0.0	4.2	-4.4	0.1	0.0
FC(F)(F)c1ccc(CN2C[C@@H]3C(c4ccc(Cl)nc4)C4(c5cccnc5)CC3(C4)[C@H]2c2ccccc2)cc1 (some centres undefined)	36.8	2.7	·	-0.1	i	13.9	1.8	0.0	9.6	0.6
CC(=O)c1ncnn1CC(=O)c1ccc(Cl)cc1Cl	4.1	-4.3	0.704	1.2	·	·	·	·	·	6.1
Cc1nc(N2CCCCC2C)c2c(C)c(C(=O)Nc3ccccc3C(F)(F)F)sc2n1 (centres undefined)	28.5	1.0	0.724	1.1	i	·	·	·	-1.5	-49.2
CCC(=O)Nc1nc2ccccc2n1CCN1CCOCC1	-1.9	·	0.686	?	·	·	·	·	·	1.4
CCc1cccc(C)c1NC(=O)C(c1ccccc1)N1CCC1=O (centres undefined)	-0.3	-8.0	0.667	0.3	·	·	·	·	·	0.6
CN(C)c1ccc(C(CC(=O)O)C(=O)O)cc1 (centres undefined)	-3.7	0.5	0.75	-0.1	i	4.9	7.1	1.7	-1.7	0.9
Cc1cc(C)cc(Oc2ccc(C(F)(F)F)cc2C#N)c1	4.9	-0.2	0.769	-0.9	·	·	·	·	·	4.7
Cc1cc(NC(=O)CSCc2ccc([N+](=O)[O-])cc2)no1	6.3	-6.7	0.728	0.4	i	9.4	1.7	1.1	-1.6	5.4
CCC(C)[C@H]1CNC(=S)N1CCC12CC3CC(CC(C3)C1)C2 (some centres undefined)	-19.2	15.9	·	0.0	·	·	·	·	·	-0.3
COc1ccc(CNC(=O)C(C#N)c2nc3ccccc3nc2N2CCN(C)CC2)cc1 (centres undefined)	16.6	-8.1	0.692	0.1	·	·	·	·	·	1.7
Fc1ccc(Nc2ncnc3sccc23)cc1	2.2	0.5	0.589	0.9	i	4.3	0.5	1.2	-1.2	-0.1
Cc1ccc(C)c(S(=O)(=O)N2CC(=O)N(CCc3ccccc3)C(=O)C2)c1	-19.1	-6.3	0.705	0.6	·	·	·	·	·	3.6
CC(=O)NCCSC(=O)c1ccc(F)cc1	-16.5	-2.7	0.735	0.2	·	·	·	·	·	3.5
CC(C)C(=O)Nc1ccc(S(=O)(=O)N2CCC(c3nc4ccccc4[nH]3)CC2)cc1	-14.1	13.1	0.662	-1.2	i	-0.6	-2.2	7.2	2.2	2.5
CCCC(CCC)C(=O)Nc1ccncc1	-7.8	-5.9	0.636	0.6	·	·	·	·	·	0.0
COc1ccc(C2CC(c3cccs3)=NN2C(=O)CSC2=NCCS2)cc1 (centres undefined)	15.5	-1.9	0.72	-0.2	i	-0.5	-3.5	-1.0	4.2	-25.0
C=C(C)CC(c1ccccc1)N(C(C)=O)c1ccco1 (centres undefined)	-23.8	8.2	0.702	1.0	i	2.9	-2.0	-2.3	0.3	-0.4
COc1cccc(C(=O)N(CN2CCCC2=O)c2ccccc2OC)c1	-9.2	-5.7	0.607	0.2	·	·	·	·	·	1.6
CCC(=O)N1CCc2cc(Br)cc(S(=O)(=O)CCC(=O)NCCOC)c21	-3.6	-8.8	0.708	0.9	·	·	·	·	·	1.5
CC1=C(C(=O)OCc2ccccc2)C(c2cccs2)NC(=O)N1CCCC(=O)O (centres undefined)	-18.6	-5.8	0.693	0.4	i	-5.7	-2.1	1.6	·	4.9
CN(C)CCN(Cc1ccco1)C(=O)c1cc2c(Cl)nc3ccccc3c2s1	63.2*	-6.9	0.666	-0.8	i	-33.4*	-25.9*	-3.1*	15.3	3.7
(listing goes on)
SMILES	T cruzi inh	Beta apoptosis	E coli growth	Bfl-1 A1 inh	FGF22 binding	Ecoli rRNA inh	Ecoli rRNA inh OD600	Ecoli rRNA inh RFP	AF4-AF9 inh	UCH37 inh
CC(C)COc1ccc(C(=O)Nc2ccccc2[N+](=O)[O-])cc1	1.2	·	0.685	-2.3	·	·	·	·	·	1.4
Cc1ccc(NC(=O)C(C)Sc2nnc(C3CC3)n2C2CC2)cc1S(=O)(=O)N1CCOCC1 (centres undefined)	·	-2.1	0.712	-0.5	i	6.3	3.4	2.4	-0.2	-1.0
COC(=O)c1ccccc1Oc1c(F)c(F)nc(N2CCOCC2)c1F	-6.9	0.7	0.674	0.0	·	·	·	·	·	1.4
CCCOc1ccc(N2C(=O)CC(NCc3cccs3)C2=O)cc1 (centres undefined)	-18.2	-1.3	0.792	-0.1	·	·	·	·	·	3.3
N=C1S/C(=C\c2ccc(O)cc2)C(=O)N1c1ccc(F)cc1	-10.1	·	0.696	-0.5	·	·	·	·	·	7.5
CCOC(=O)C1CCN(C(=O)CN(c2ccc(Cl)c(C(F)(F)F)c2)S(C)(=O)=O)CC1	5.8	-5.1	0.681	-1.3	·	·	·	·	·	-1.3
O=Cc1c(SCCO)nc2ccccn2c1=O	-6.5	-4.3	0.679	0.7	i	4.9	6.3	-1.5	-7.6	-0.1
CC(=O)Nc1ccc(CN2CCCC(CO)(Cc3cccc(Cl)c3)C2)cc1 (centres undefined)	10.5	-2.4	0.676	0.4	i	-0.6	5.6	9.7	-0.2	5.5
CC(=O)c1cccc(NC(=O)N2CCCc3ccccc32)c1	-10.2	-1.9	0.658	0.4	i	-15.6	-6.4	18.6	5.0	-0.2
CCCOc1ccc(C(=O)NCC(c2ccco2)N(C)C)cc1OC (centres undefined)	0.8	-5.5	0.681	0.6	i	·	·	·	5.1	-2.1
CCC(=O)N1CCN(c2ccccc2NC(=O)c2cccc(C)c2)CC1	7.3	6.3	0.682	-0.5	i	-3.5	-2.4	-8.7	3.2	4.0
O=C(NCc1ccc(Cl)cc1Cl)Nc1ccccc1	0.4	5.8	0.677	-0.5	i	8.9	12.2	0.6	-1.6	2.7
N#CC(c1ccc(Cl)nn1)c1c(F)cccc1Cl (centres undefined)	-3.7	0.2	0.698	1.1	i	16.4	9.0	-0.9	-0.6	-0.3
c1ccc(Cc2nnc(Sc3ccccc3)c3ccccc23)cc1	48.8	-7.9	0.671	1.1	i	-35.5	-29.8	-4.2	-40.9	5.0
COC(=O)N/N=C/c1cn(CCOc2cccc(OC)c2)c2ccccc12	-1.5	-4.7	·	-0.1	i	-11.3	-14.3	6.3	6.8	·
O=C(CCc1nc(-c2ccccc2)no1)NCc1cccnc1	-11.2	-2.3	0.649	-0.2	i	2.0	4.7	-7.6	-6.6	4.3
S=C(Nc1ccc(Br)cc1)N1CCN(C2CCCCC2)CC1	11.9	0.1	0.626	0.8	i	-23.6	-29.4	-2.7	-65.7	3.4
CCOC(=O)c1ccc(NC(=O)N2CCN(c3ccccn3)CC2)cc1	-4.0	4.5	0.654	0.9	·	·	·	·	·	-1.4
Cc1ccc(CNC(=O)C(=O)Nc2nccs2)cc1	-19.2	-6.3	0.683	0.0	i	9.1	16.3	4.0	-1.2	-2.3
Cc1nc(CS(=O)c2ccccc2)cc(N2CCOCC2)n1 (centres undefined)	-9.5	-6.3	0.732	0.1	·	·	·	·	·	0.9
O=C(CC1SCCNC1=O)Nc1ccccc1Cl (centres undefined)	1.0	-6.7	0.713	0.2	i	3.8	-7.4	-5.8	0.8	0.5
Cc1nc(SCc2nc3ccc(F)cc3[nH]2)c2oc3ccccc3c2n1	·	8.4	0.666	0.8	i	-15.8	-16.2	-1.2	1.4	-55.4
CCN(CC)C(=O)CSc1nc(C)cc(-c2cccs2)c1C#N	24.0	-1.5	0.674	0.3	·	·	·	·	·	1.3
CCOC(=O)N1CCN(Cc2c(O)ccc3ccccc23)CC1	-22.8	-2.4	0.65	1.8	i	9.5	4.8	3.4	7.2	-9.9
CCN1C(=O)[C@H]2[C@@H](c3ccc(-c4ccccc4)c(OC)c3)N[C@@](CC(C)C)(C(=O)OC)[C@H]2C1=O	·	1.5	·	0.5	i	6.2	13.3	1.5	4.0	-0.3
Next section.
SMILES	T cruzi inh	Beta apoptosis	E coli growth	Bfl-1 A1 inh	FGF22 binding	Ecoli rRNA inh	Ecoli rRNA inh OD600	Ecoli rRNA inh RFP	AF4-AF9 inh	UCH37 inh
N/C(=N\OC(=O)CCCc1ccccc1)c1cccc([N+](=O)[O-])c1	-10.0	-1.0	·	-0.5	i	-3.6	-11.5	-8.8	4.3	·
COCCn1c(=O)[nH]c2cc(C(=O)NCc3ccccc3)ccc2c1=O	4.6	7.1	0.702	0.3	·	·	·	·	·	-27.0
COc1cc(N2CCCC2)c(OC)cc1/C=C(/C#N)c1ccc(F)cc1	-4.5	9.1	0.759	-0.3	·	·	·	·	·	-3.5
CN(C)c1ccc(/C=C/c2nc3ccccc3s2)cc1	25.7	18.6	0.731	-6.2	·	·	·	·	·	-18.6
COc1cc(C2NC(=O)NC(c3ccccc3)=C2C(C)=O)cc(Cl)c1OCC(=O)O (centres undefined)	-4.4	-7.4	0.682	0.2	i	14.4	19.6	2.7	0.4	3.5
COCCNC(=O)Cn1c(=O)oc2cc(S(=O)(=O)N3CC(C)CC(C)C3)ccc21 (centres undefined)	-7.9	-13.9	0.62	-0.4	i	1.5	5.0	-0.5	2.5	0.1
CCOC(=O)N1CCN(C(=O)COc2cc(C)c(Cl)c(C)c2)CC1	-13.8	-0.7	0.669	-2.7	i	-14.2	-45.6	-7.4	-0.3	4.2
Cc1c(N(C)S(=O)(=O)c2cc(C(=O)N3CCCC3)ccc2Cl)c(=O)n(-c2ccccc2)n1C	0.6	-1.2	0.709	2.3	i	17.0	13.4	-0.2	7.1	-0.7
O=C(NCC(c1cccnc1)N1CCN(c2ccc(F)cc2)CC1)c1cccc(Cl)c1 (centres undefined)	53.6	2.7	0.717	-0.7	·	·	·	·	·	-0.6
COc1ccc2c(Cl)c(C(=O)N/N=C/c3cccnc3)sc2c1	-1.9	1.9	·	-2.4	i	2.5	3.8	1.4	0.1	·
CCCS(=O)(=O)N1CCC(C(=O)NCCc2ccc(OC)c(OC)c2)CC1	6.6	-1.4	0.706	0.4	·	·	·	·	·	4.3
COc1ccc(C(=O)NC(=S)N2CCC(C)CC2)cc1	-13.3	-2.8	0.709	-1.3	·	·	·	·	·	0.7
O=C(Nc1ccc(F)cc1F)c1noc2c1CCC2	-11.6	-0.8	0.697	-4.7	·	·	·	·	·	5.9
CCOc1ccc(C(=O)Nc2nnc(C(C)C)s2)cc1OCC	-6.3	-8.4	0.711	-0.4	·	·	·	·	·	4.4
Cc1cc(N2CCC(C(=O)NC3CC3)CC2)nc(-c2ccccc2)n1	-6.9	-2.9	0.734	-2.4	·	·	·	·	·	4.2

Screening data: PubChem, several laboratories
